Vaccinia stage: Vaccinia orthopox stage-specific inhibition | Vaccinia-infected cells, mCherry/Venus stage reporter fluorescence; active compounds read low; some inactives read as strong as hits | AID 1053133 | activity change (mCherry), % (no concentration beside the values) | 0.01% of 89,000 active;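 active means mCherry past -33% and 40 or more points under the early reporter, replicates agreeing; inconclusive means past -33% without that gap or agreement; tested in A549 cells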;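 further: scaled between vehicle wells and reference inhibitor wells; 23 nL library stock went into each well; one replicate is shown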
Vaccinia stage Venus: recorded beside Vaccinia stage, whose call it bears; activity change (Venus), %; measured here: Venus reporter, other viral stage;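 negative = less Venus signal; first of two replicates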
Starred values were filed as active, the others as inactive; ? = inconclusive; nt = no result given; & = joins results of further samples. This is a subset, so the mix of outcomes need not match the whole.

SMILES | Vaccinia stage | Vaccinia stage Venus
C[C@@H]1CCCCO[C@H](CN(C)Cc2ccc(C(=O)Nc3ccccc3N)cc2)[C@@H](C)CN([C@H](C)CO)C(=O)c2cc(NS(C)(=O)=O)ccc2O1 | 27 | 17
COc1ccc2c3c([nH]c2c1)[C@H](CO)NCC31CCN(C(=O)Cc2cccnc2)CC1 | 1 | 2
CC(C)NC(=O)Nc1ccc2c(c1)CC(=O)N([C@@H](C)CO)C[C@H](C)[C@H](CN(C)C(=O)Nc1ccc(C(F)(F)F)cc1)O2 | 9 | 4
Cc1noc(C)c1S(=O)(=O)Nc1ccc2c(c1)C(=O)N([C@@H](C)CO)C[C@H](C)[C@H](CN(C)S(=O)(=O)c1c(C)noc1C)OCCCC[C@@H](C)O2 | -4 | -2
CCCNC(=O)Nc1ccc2c(c1)C(=O)N(C)C[C@H](OC)[C@H](C)CN(C(=O)C1CCOCC1)[C@H](C)CO2 | 1 | 2
CC(=O)N1[C@H](CO)[C@@H](c2ccccc2)[C@@H]1CNC(=O)CN1CCOCC1 | 5 | -3
COc1ccc([C@H]2C[C@H]3C(Br)=CC2C(=O)[C@]32CO2)cc1OC | 1 | -3
C[C@H](CO)N1C[C@H](C)[C@@H](CN(C)C(=O)Nc2ccccc2)Oc2ccc(N(C)C)cc2C1=O | 12 | 6
CN1C(=O)c2cc(NC(=O)C3CC3)ccc2OC[C@@H]2O[C@@H](CC(=O)NCc3ccccc3F)CC[C@@H]21 | 11 | 1
C[C@@H]1CN([C@H](C)CO)C(=O)c2cc(C#CCC3CCCC3)cnc2O[C@@H]1CN(C)C(=O)CN(C)C | -27 | -22
COCC#Cc1ccc([C@H]2[C@@H](CO)N3C(=O)CN(C(=O)C4CCOCC4)C[C@@H]23)cc1 | 5 | 5
CCC(=O)N[C@@H]1C=C[C@@H](CC(=O)NCc2ccc(OC)cc2)O[C@@H]1CO | -3 | -11
C[C@H](CO)N1C[C@H](C)[C@@H](CN(C)Cc2ccc(C(F)(F)F)cc2)OCCCC[C@H](C)Oc2ccc(N(C)C)cc2C1=O | ? | nt
C[C@@H]1CCCCO[C@@H](CN(C)Cc2ccc(C(F)(F)F)cc2)[C@H](C)CN([C@@H](C)CO)C(=O)c2cc(NC(=O)NC3CCCCC3)ccc2O1 | -6 | -2
C[C@H](CO)N1C[C@H](C)[C@@H](CN(C)C(=O)NC2CCCCC2)Oc2ccc(NC(=O)C3CCCCC3)cc2C1=O | 13 | 5
O=C(c1ccncc1)N1CC(=O)N2[C@H](C1)[C@@H](c1ccc(-c3cccnc3)cc1)[C@@H]2CO | 12 | 3
Cc1ccc(S(=O)(=O)N[C@H]2CC[C@H](CCn3cc(C4CCCC4)nn3)O[C@H]2CO)cc1 | -18 | -3
COc1cccc(CN(C)C[C@H]2OCc3ccccc3-c3c(n(C)c4ccccc34)C(=O)N([C@H](C)CO)C[C@H]2C)c1 | ? | nt
CN1C(=O)c2cc(NC(=O)Nc3ccc(F)cc3)ccc2OC[C@H]2O[C@H](CC(=O)NC3CCC3)CC[C@@H]21 | 5 | -1
C[C@H](CO)N1C[C@H](C)[C@H](CN(C)C(=O)c2ccccc2)Oc2ncc(C#Cc3ccccc3)cc2C1=O | 2 | -5
O=C(C[C@@H]1C[C@H]2c3cc(NC(=O)CC4CC4)ccc3O[C@H]2[C@H](CO)O1)NCC(F)(F)F | -2 | 0
C[C@@H]1CN([C@@H](C)CO)S(=O)(=O)c2ccc(-c3ccccc3F)cc2O[C@H]1CN(C)C(=O)C1CC1 | -16 | -8
COc1ccc(S(=O)(=O)N(C)C[C@H]2OCCCC[C@H](C)Oc3ccc(NC(=O)Nc4c(C)noc4C)cc3C(=O)N([C@H](C)CO)C[C@H]2C)cc1 | 19 | 9
CC(C)NC(=O)N(C)C[C@@H]1Oc2ncc(C#Cc3ccc(F)cc3)cc2C(=O)N([C@@H](C)CO)C[C@H]1C | 1 | 5
Cc1ccc(S(=O)(=O)N[C@@H]2CC[C@@H](CC(=O)NCc3ccccc3F)O[C@H]2CO)cc1 | -4 | -8
CCC(=O)Nc1ccc2c(c1)OC[C@@H](C)N(C(=O)CN1CCOCC1)C[C@H](C)[C@H](OC)CN(C)C2=O | -12 | -7
C[C@@H]1CCCCO[C@@H](CN(C)Cc2ccc(C(=O)O)cc2)[C@H](C)CN([C@@H](C)CO)C(=O)c2cc(NC(=O)C3CCCCC3)ccc2O1 | 25 | 14
C=CCOC(=O)C1=C[C@H](c2coc3ccccc3c2=O)C[C@H](OCCCCO)O1 | 7 | 2
O=C(C[C@H]1C=C[C@@H](NS(=O)(=O)c2ccc(F)cc2)[C@@H](CO)O1)N1CCC(Cc2ccccc2)CC1 | -29 | -28
C[C@@H]1CN([C@H](C)CO)C(=O)c2ccccc2-c2ccccc2CO[C@@H]1CN(C)S(=O)(=O)c1ccccc1C#N | 18 | 6
COc1ccc(NC(=O)C(OC(=O)c2ccccc2)c2cccs2)cc1 (stereo not drawn) | 0 | -2
C[C@@H]1CN([C@H](C)CO)C(=O)c2cc(NS(=O)(=O)c3cccs3)ccc2O[C@@H](C)CCCCO[C@H]1CN(C)S(=O)(=O)c1cccs1 | -31 | -28
CCC(=O)N1[C@@H]2CN(S(=O)(=O)c3ccccc3F)c3ccccc3[C@@H]2[C@@H]1CO | -3 | 1
O=C(NCC1CC1)[C@H]1[C@H](CO)[C@H]2Cn3c(ccc(-c4ccccc4F)c3=O)[C@@H]1N2Cc1ccncc1 | 26 | 15
Cc1ccc(S(=O)(=O)Nc2ccc3c(c2)C(=O)N([C@@H](C)CO)C[C@@H](C)[C@@H](CN(C)S(=O)(=O)c2c(C)noc2C)OCCCC[C@@H](C)O3)cc1 | ? | nt
O=C(C[C@@H]1CC[C@H](NS(=O)(=O)c2ccccc2)[C@H](CO)O1)N1CCc2ccccc2C1 | 10 | 12
O=S(=O)(N[C@@H]1CC[C@H](CCn2cc(-c3cccnc3)nn2)O[C@H]1CO)c1ccccc1 | 10 | 8
C[C@@H]1CN([C@H](C)CO)C(=O)c2cc(NC(=O)C3CCCCC3)ccc2O[C@@H](C)CCCCO[C@H]1CN(C)Cc1ccncc1 | -13 | -15
C[C@@H]1CN([C@@H](C)CO)C(=O)c2cccc(NC(=O)C3CC3)c2O[C@@H]1CN(C)CC1CC1 | 9 | 5
CCCC#Cc1ccc2c(c1)O[C@H](CN(C)CC1CCOCC1)[C@@H](C)CN([C@H](C)CO)S2(=O)=O | -25 | -28
CCCNC(=O)N(C)C[C@@H]1Oc2ncc(-c3ccccc3F)cc2C(=O)N([C@@H](C)CO)C[C@H]1C | 4 | 9
C[C@H](CO)N1C[C@H](C)[C@H](CN(C)C(=O)Nc2ccccc2)Oc2ccc(NC(=O)CCC(F)(F)F)cc2C1=O | -3 | 6
CN(C)C(=O)[C@H]1[C@H](CO)[C@H]2Cn3c(ccc(-c4ccccc4)c3=O)[C@@H]1N2Cc1ccccn1 | 14 | 7
C[C@@H]1CN([C@H](C)CO)C(=O)Cc2cc(NC(=O)Cc3cn(C)c4ccccc34)ccc2O[C@H]1CN(C)C(=O)Nc1ccc(C(F)(F)F)cc1 | -7 | -7
CC(C)C#Cc1ccc2c(c1)O[C@H](CN(C)C(=O)c1ccccn1)[C@@H](C)CN([C@@H](C)CO)S2(=O)=O | -7 | -10

Looked up by compound from above (two):
SMILES | Vaccinia stage | Vaccinia stage Venus
C[C@@H]1CN([C@H](C)CO)C(=O)Cc2cc(NC(=O)Cc3cn(C)c4ccccc34)ccc2O[C@H]1CN(C)C(=O)Nc1ccc(C(F)(F)F)cc1 | -7 | -7
O=C(NCC1CC1)[C@H]1[C@H](CO)[C@H]2Cn3c(ccc(-c4ccccc4F)c3=O)[C@@H]1N2Cc1ccncc1 | 26 | 15

Profiles, looked up by structure.
CC(C)NC(=O)N(C)C[C@@H]1Oc2ncc(C#Cc3ccc(F)cc3)cc2C(=O)N([C@@H](C)CO)C[C@H]1C as listed: Vaccinia stage: 1; Vaccinia stage Venus: 5
CCCNC(=O)Nc1ccc2c(c1)C(=O)N(C)C[C@H](OC)[C@H](C)CN(C(=O)C1CCOCC1)[C@H](C)CO2 as listed: Vaccinia stage: 1; Vaccinia stage Venus: 2

Continuation:
SMILES | Vaccinia stage | Vaccinia stage Venus
O=C(N[C@@H]1CC[C@@H](CCn2cc(-c3ccccn3)nn2)O[C@H]1CO)c1ccccc1 | -7 | -2
COc1ccc(NC(=O)N[C@H]2CC[C@@H](CC(=O)NC3CCC3)O[C@H]2CO)cc1 | 2 | 4
C[C@H](CO)N1C[C@H](C)[C@H](CN(C)S(=O)(=O)c2ccccc2)OCCCC[C@H](C)Oc2ccc(NC(=O)CCCN(C)C)cc2C1=O | 23 | 12
C[C@@H]1CN([C@@H](C)CO)C(=O)Cc2cc(NS(C)(=O)=O)ccc2O[C@@H]1CN(C)Cc1ccc(Cl)c(Cl)c1 | ? | nt
C[C@H](CO)N1C[C@H](C)[C@H](CN(C)S(=O)(=O)c2ccc(Cl)cc2)OCCCC[C@H](C)Oc2ccc(NC(=O)Nc3cccc4ccccc34)cc2C1=O | 13 | 14
C[C@@H]1CCCCO[C@H](CN(C)S(=O)(=O)c2ccccc2)[C@H](C)CN([C@@H](C)CO)C(=O)c2cc(NS(C)(=O)=O)ccc2O1 | 22 | -2
CN1c2ccc(-c3ccccc3)cc2[C@@H]2[C@@H](CCN2C(=O)Cc2ccccc2)[C@@H]1CO | ? | nt
C/C=C/c1cnc2c(c1)C(=O)N([C@@H](C)CO)C[C@@H](C)[C@@H](CN(C)S(=O)(=O)c1ccc(C)cc1)O2 | 2 | -2
NC(=O)[C@@H]1[C@H]2C(=O)O[C@H](c3ccccc3)[C@H](c3ccccc3)N2[C@H](c2ccc(O)cc2)[C@@]12C(=O)Nc1ccccc12 | 12 | 8
Cc1ccc(S(=O)(=O)N(C)C[C@@H]2Oc3ccc(NC(=O)Nc4cccc5ccccc45)cc3CC(=O)N([C@@H](C)CO)C[C@H]2C)cc1 | -27 | -13
CC(C)C#Cc1cnc2c(c1)C(=O)N([C@H](C)CO)C[C@@H](C)[C@@H](CN(C)C(=O)Nc1ccccc1)O2 | -1 | 3
CC(C)NC(=O)N(C)C[C@H]1OCCCC[C@H](C)Oc2ccc(NC(=O)Nc3ccc(F)cc3)cc2C(=O)N([C@H](C)CO)C[C@@H]1C | 18 | 16
COc1ccc(CN(C)C[C@H]2Oc3ccc(NS(=O)(=O)c4cccs4)cc3CC(=O)N([C@H](C)CO)C[C@@H]2C)cc1 | 2 | -11
C[C@@H]1CN([C@H](C)CO)S(=O)(=O)c2ccc(C#CCC3CCCC3)cc2O[C@H]1CN(C)C(=O)c1cnccn1 | -2 | -2
C[C@@H]1CN([C@H](C)CO)C(=O)CCCn2nncc2CO[C@@H]1CN(C)Cc1cccc(C(=O)O)c1 | 4 | 2
C[C@@H]1CCCCO[C@@H](CN(C)S(=O)(=O)c2ccc(Cl)cc2)[C@@H](C)CN([C@@H](C)CO)C(=O)c2cc(NS(=O)(=O)c3ccc(F)cc3)ccc2O1 | -3 | -5
C[C@H](CO)N1C[C@H](C)[C@H](CN(C)S(=O)(=O)c2ccc(Cl)cc2)OCCCC[C@H](C)Oc2ccc(NS(=O)(=O)c3cn(C)cn3)cc2C1=O | 13 | 1
C[C@@H]1CN([C@@H](C)CO)C(=O)c2cc(NC(=O)Cc3ccccc3)ccc2O[C@@H]1CN(C)Cc1ccccc1 | -15 | -5
CC(C)NC(=O)N(C)C[C@H]1Oc2ccc(NC(=O)C3CCCCC3)cc2C(=O)N([C@H](C)CO)C[C@@H]1C | 15 | 5
COc1cccc(C#Cc2cnc3c(c2)C(=O)N([C@@H](C)CO)C[C@H](C)[C@H](CN(C)C(=O)C2CCC2)O3)c1 | -7&4 | -14&0
C[C@@H]1CN([C@H](C)CO)C(=O)CCCn2nncc2CO[C@H]1CN(C)S(=O)(=O)c1cccc(F)c1 | -5 | 12
C[C@H]1CN([C@@H](C)CO)C(=O)c2cccc(NC(=O)c3cnccn3)c2O[C@@H]1CN(C)C | 14 | 11
CC(C)NC(=O)N[C@@H]1CC[C@H](CC(=O)NCCCN(C)C)O[C@@H]1CO | 13 | 12
N#Cc1cccc(-c2ccc3c(c2)[C@H]2[C@H](CCN2C(=O)C2CCCCC2)[C@@H](CO)N3)c1 | ? | nt
CN1C(=O)c2cc(NC(=O)c3cccc(F)c3)ccc2OC[C@H]2O[C@@H](CC(=O)N3CCc4ccccc4C3)CC[C@@H]21 | -27 | -22
C[C@@H]1CN([C@H](C)CO)C(=O)Cc2cc(NC(=O)Cc3cn(C)c4ccccc34)ccc2O[C@@H]1CN(C)Cc1ccc2c(c1)OCO2 | -4 | -5
O=C(Nc1ccc(F)cc1)N[C@H]1CC[C@@H](CCNC(=O)c2cc(Cl)cc(Cl)c2)O[C@@H]1CO | -17 | -12
COc1ccc(CN2[C@H](CO)[C@@H]3c4ccccc4N(C(=O)NC(C)C)C[C@@H]32)cc1 | 10 | 9
O=C(C[C@H]1C[C@H]2c3cc(NS(=O)(=O)c4ccc(F)cc4)ccc3O[C@H]2[C@H](CO)O1)NCc1ccc(Cl)cc1 | ? | nt
O=C(NC1CCCCC1)N[C@@H]1CC[C@@H](CCNS(=O)(=O)c2ccc(Cl)cc2)O[C@H]1CO | -7 | -3
O=C(CC1CC1)N1CC2(C1)[C@H](c1ccccc1)[C@@H](CO)N2Cc1ccc(F)cc1 | 12 | 14

Sorted by heavy-atom count (rising): some entries from above.
SMILES | Vaccinia stage | Vaccinia stage Venus
O=C(CC1CC1)N1CC2(C1)[C@H](c1ccccc1)[C@@H](CO)N2Cc1ccc(F)cc1 | 12 | 14
N#Cc1cccc(-c2ccc3c(c2)[C@H]2[C@H](CCN2C(=O)C2CCCCC2)[C@@H](CO)N3)c1 | ? | nt
C[C@@H]1CCCCO[C@@H](CN(C)S(=O)(=O)c2ccc(Cl)cc2)[C@@H](C)CN([C@@H](C)CO)C(=O)c2cc(NS(=O)(=O)c3ccc(F)cc3)ccc2O1 | -3 | -5
